TRPML1 inh: human mucolipin-1 channel inhibition | Q9GZU1 | TRPML1-inducible cells, Ca2+ dye fluorescence, FDSS; hits give low values; inhibition of EC80 agonist-evoked calcium signal | activity change, negative = inhibition, % (test concentration not listed) | 390,000 tested, 0.02% active | AID 624415; in the data active means activity change below about -50%; inconclusive means about -30% to -50%; inactive means above about -30%;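 further: stimulus is agonist 54-4 at its EC80 concentration; on the % scale 0 is the no-effect control and ±100 the full control effect; compound concentration not given in the record; the text of the record puts the active cut at -80%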
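Calcium fluorescence in TRPML1-DL cells induced overnight with Tet: a 110 s read after compound pin addition, then a 110 s antagonist read after challenge with 54-4 at 4 uM final (EC80).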
D2 PAM: positive allosteric modulators of human D2 dopamine receptor; 360,000 tested, 0.23% active; AID 624464; potentiation, % (no concentration beside the values); DiscoveRx D2 beta-arrestin cells, luminescence, 90 min; 100% = 57 uM dopamine signal; P14416; active = potentiation of 50% or more; inconclusive = 30% to 50%; inactive = 30% or less;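 further: compound concentration not given in the record; tested on top of an EC20 dose of dopamine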
Target sequence (P14416 whole entry, looked up): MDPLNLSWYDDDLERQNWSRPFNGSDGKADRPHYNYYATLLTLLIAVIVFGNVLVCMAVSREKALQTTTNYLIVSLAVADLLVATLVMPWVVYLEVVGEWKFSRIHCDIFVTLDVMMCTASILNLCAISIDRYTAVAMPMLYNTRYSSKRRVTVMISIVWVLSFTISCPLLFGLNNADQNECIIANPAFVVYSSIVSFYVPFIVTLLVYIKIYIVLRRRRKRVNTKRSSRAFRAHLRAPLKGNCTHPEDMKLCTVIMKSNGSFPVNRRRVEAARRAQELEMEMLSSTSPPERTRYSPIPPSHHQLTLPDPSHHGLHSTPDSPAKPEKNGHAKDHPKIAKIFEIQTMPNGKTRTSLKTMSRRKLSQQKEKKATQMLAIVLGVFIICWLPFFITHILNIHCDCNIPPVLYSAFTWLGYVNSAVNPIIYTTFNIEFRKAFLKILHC
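PathHunter D2 cells, attached overnight at 37 deg C, received compound in DMSO plus dopamine at EC20 (50 nM final) for 90 min at 37 deg C. Beta-arrestin recruitment was read as luminescence after 1 h with detection reagent at ambient temperature.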
TRPV1 PAM: human TRPV1 potentiation; TRPV1-expressing cells, Fluo-8 calcium influx, capsaicin EC20 potentiation; host cell line not named in the record; control for the full effect not named in the record; AID 540277; potentiation, % at 8.33 µM; Q8NER1; 320,000 tested, 0.02% active; active means potentiation above 80%; inconclusive means 30% to 80%; inactive means below 30%; further: 0% is about no effect
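Fluo-8 calcium influx in TRPV1-expressing cells, kinetic read (ex 480/em 520 nm). Compound added and read 3 min for agonist activity, followed by capsaicin at EC20 final and 2 min further read for enhancement.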
CtBP-E1A blk: blocks the CtBP interaction with E1A; 340,000 tested, 0.49% active; AlphaScreen GST-E1A/His-CtBP binding, 1536-well; hits give low values; control for the full effect not named in the record; activity change, % (test concentration not listed); in the data active means activity change below about -65%; inconclusive means about -30% to -65%; inactive means above about -30%; further: on the % scale 0 is the no-effect control and ±100 the full control effect; compound concentration not given in the record
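Homogeneous bead-based format: GST-tagged E1A captured on glutathione donor beads, His-tagged CtBP on nickel acceptor beads; compounds precede bead addition by 2 h at 37 °C.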
Six1-Eya2 blk: blocks human Six1 binding to Eya2; AlphaScreen GST-Six1/His-Eya2 binding, biochemical; hits give low values; control for the full effect not named in the record; activity change, % (concentration not given with the values); 360,000 tested, 0.56% active; Q15475+O00167; in the data active = activity change below about -65%; inconclusive = about -30% to -65%; inactive = above about -30%; further: on the % scale 0 is the no-effect control and ±100 the full control effect
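AlphaScreen with GST-Six1 and His-Eya2 (5X mix: 250 nM and 500 nM), glutathione donor and nickel acceptor beads; buffer 50 mM Tris pH 8.0, 300 mM NaCl, 1 mM TCEP; 1 h at 37 C in the dark.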
TRPML1 agonist: human mucolipin-1 channel agonism. 410,000 tested, 0.12% active. Q9GZU1. activation, % (no concentration beside the values). TRPML1-expressing cells, Ca2+ dye fluorescence, FDSS; host cell line not named in the record; reference of the full effect not given here; in the data active = activation above about 50%; inconclusive = about 30% to 50%; inactive = below about 30%; further: 0% is about no effect; the text of the record puts the active cut at 80%
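Agonist activity was taken from a 110 s kinetic Ca2+ dye read on the FDSS after pinning compounds onto TRPML1-DL cells. The cells were seeded at 1,500/well with Tet inducer, incubated about 16 h, then dye-loaded at room temperature.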
Starred values were filed as active, the others as inactive; ? = inconclusive; . = not tested or not shown.

The first two entries (preview)
item | structure | TRPML1 inh | D2 PAM | TRPV1 PAM
1 | CSCCC(NS(=O)(=O)c1ccc(Cl)cc1)C(=O)OCC(=O)c1ccc(F)cc1 (stereo not given) | -12.3 | -16.4 | 8.7
2 | CCOC(=O)C1CCN(S(=O)(=O)c2cn(C)c(C)n2)CC1 | -8.6 | -3.9 | -26.6

item | CtBP-E1A blk | Six1-Eya2 blk | TRPML1 agonist
1 | 3.7 | 6.0 | 3.5
2 | 0.6 | -1.0 | 1.3

The listing, previewed entries included:
item | structure | TRPML1 inh | D2 PAM | TRPV1 PAM
1 | CSCCC(NS(=O)(=O)c1ccc(Cl)cc1)C(=O)OCC(=O)c1ccc(F)cc1 (stereo not given) | -12.3 | -16.4 | 8.7
2 | CCOC(=O)C1CCN(S(=O)(=O)c2cn(C)c(C)n2)CC1 | -8.6 | -3.9 | -26.6
3 | CC(=O)c1cc(CN2C(=O)c3ccccc3C2=O)cs1 | 1.0 | -0.8 | -16.0
4 | CN(C(=O)COc1ccc(Oc2ccccc2)cc1)C1CCS(=O)(=O)C1 (stereo not given) | 5.5 | -6.4 | -2.4
5 | COc1ccc(NC(=O)COC(=O)CN2C(=O)c3ccccc3C2=O)cc1 | 3.1 | -1.0 | 4.8
6 | CC1=CC(C)(C)n2c(O)c(N=NC(N)=S)c3c(C)c(C)cc1c32 | -2.3 | -2.5 | -0.6
7 | CC1(NC(=O)CC(c2ccccc2)(c2ccccc2)c2ccccc2)CCN(Cc2ccc(-c3ccccc3)cc2)C1=O (stereo not given) | 4.3 | -13.9 | .
8 | COc1cccc(NC(=S)N(CCCN2CCCC(C)C2)Cc2cccs2)c1 (stereo not given) | -11.0 | -14.6 | -6.0
9 | CC(C)c1ccc(NC(=O)CCNS(=O)(=O)c2cc(Br)cnc2N)cc1 | -8.7 | -16.8 | -21.1
10 | CCc1ccc(-c2cnc3ccccc3n2)cc1NC(=O)CNC(=O)c1ccccc1 | 24.6 | -15.1 | -4.9
11 | COC(=O)Cn1c(CN(C)Cc2ccccc2)nc2c1c(=O)n(C)c(=O)n2C | 14.8 | -12.9 | 6.3
12 | O=C(CSc1nc2ccccc2n1S(=O)(=O)c1cccc([N+](=O)[O-])c1)NCCc1ccccc1 | 20.3 | 14.4 | -12.1
13 | CC1(Cc2cc(Cl)ccc2C(F)(F)F)C(=O)Nc2cc(-c3ccccc3Cl)ccc21 (stereo not given) | 43.7 | -13.0 | .
14 | Cc1cc(C(=O)CSc2nc3ccccc3[nH]2)c(C)n1C | -4.1 | -29.6 | 8.1
15 | CCn1c(SCC(=O)NC(=O)NCc2ccco2)nnc1-c1cccs1 | 20.8 | -24.4 | 15.9

item | CtBP-E1A blk | Six1-Eya2 blk | TRPML1 agonist
1 | 3.7 | 6.0 | 3.5
2 | 0.6 | -1.0 | 1.3
3 | 4.4 | 6.7 | 1.4
4 | 7.1 | 7.3 | 0.3
5 | -0.3 | -1.7 | -0.4
6 | -1.1 | -4.4 | 0.9
7 | -4.3 | -15.1 | -0.3
8 | 1.4 | -6.4 | 0.2
9 | 0.7 | 3.8 | -0.2
10 | -0.8 | 8.9 | -0.5
11 | 12.5 | -1.6 | -0.6
12 | -11.9 | -5.4 | 0.7
13 | 2.8 | 4.4 | -0.7
14 | -2.9 | -17.1 | -0.5
15 | -1.0 | -1.6 | 3.5

Reprinted at random: 2 compounds from above.
item | structure | TRPML1 inh | D2 PAM | TRPV1 PAM
11 | COC(=O)Cn1c(CN(C)Cc2ccccc2)nc2c1c(=O)n(C)c(=O)n2C | 14.8 | -12.9 | 6.3
12 | O=C(CSc1nc2ccccc2n1S(=O)(=O)c1cccc([N+](=O)[O-])c1)NCCc1ccccc1 | 20.3 | 14.4 | -12.1

item | CtBP-E1A blk | Six1-Eya2 blk | TRPML1 agonist
11 | 12.5 | -1.6 | -0.6
12 | -11.9 | -5.4 | 0.7

(list continues)
item | structure | TRPML1 inh | D2 PAM | TRPV1 PAM
16 | Cc1ccc(Cc2c(-c3cccc(Cl)c3)nc3ccc(Br)cn23)cc1 | 39.9 | -4.1 | .
17 | O=C(O)c1ccccc1S(=O)(=O)Cc1ccccc1 | -7.0 | -5.1 | 12.0
18 | O=C(N/N=C/c1ccc2c(c1)OCO2)c1ccc(NC(=O)c2ccc(F)cc2)cc1 | -2.8 | -9.2 | 2.7
19 | CCOc1cc(/C=N/NC(=O)C(=O)N/N=C/c2ccc(O)c(OCC)c2)ccc1O | 14.3 | -2.2 | -1.2
20 | O=C(O)c1cccc(NS(=O)(=O)c2ccc3nnn(O)c3c2)c1 | 4.3 | -10.1 | -3.1
21 | Cc1c(-c2cc(C(=O)O)c3ccccc3n2)cnn1C | 3.8 | -3.9 | 11.4
22 | NC(Cc1ccc(Cl)cc1)c1csc(Nc2ccc(C(=O)NCCCO)cn2)n1 (stereo not given) | . | -19.9 | .
23 | COc1ccc(C2=NN(C(=O)CSc3nc(=O)n4cc(C)ccc4n3)C(c3ccc(C)cc3)C2)cc1 (stereo not given) | -12.7 | -12.7 | 10.8
24 | COc1ccc(-c2ccc(C(=O)Nc3cc(OC)c(OC)c(OC)c3)c3occc23)c(C)c1 | . | -2.6 | .
25 | CCn1c(=O)c(=O)[nH]c2cc(C(=O)N(C)Cc3ccc(OC)c(F)c3)ccc21 | 3.9 | -3.0 | 2.6
26 | CCOC(=O)C1C2C=CC3(CN(c4ccc(Cl)c(F)c4)C(=O)C13)O2 (stereo not given) | 30.2 | -2.0 | 0.3
27 | C/C(=N/NC(=O)c1ccccc1)C1=C(O)CC(C)(C)CC1=O | 2.5 | -1.7 | 0.9
28 | Cc1cnc(C2OCCO2)c2cccc(N)c12 | 6.4 | -1.3 | .
29 | C/C(=N\NC(=O)C(N)=O)c1ccc(O)cc1O | -1.5 | 1.8 | 2.8
30 | O=C(O)c1nn(Cc2nc3ccccc3o2)c(=O)c2ccccc12 | -8.8 | -0.3 | 9.6

item | CtBP-E1A blk | Six1-Eya2 blk | TRPML1 agonist
16 | -9.8 | 8.9 | 1.0
17 | -9.5 | -0.3 | 0.2
18 | -1.0 | -5.1 | 0.7
19 | 0.9 | -9.2 | -0.6
20 | 0.0 | -6.1 | -0.5
21 | 0.3 | 4.2 | 0.1
22 | ? | ? | -0.9
23 | 1.0 | 0.5 | 1.1
24 | 1.4 | -13.6 | 0.6
25 | 2.8 | -8.0 | 0.4
26 | 2.0 | 2.1 | 1.0
27 | . | 8.0 | -0.4
28 | -4.5 | 26.1 | -0.1
29 | ? | -14.6 | 0.3
30 | 2.3 | 1.0 | 1.6

Arranged by the number under Six1-Eya2 blk (high to low): four of the compounds above
entry	SMILES	TRPML1 inh	D2 PAM	CtBP-E1A blk	Six1-Eya2 blk
21	Cc1c(-c2cc(C(=O)O)c3ccccc3n2)cnn1C	3.8	-3.9	0.3	4.2
30	O=C(O)c1nn(Cc2nc3ccccc3o2)c(=O)c2ccccc12	-8.8	-0.3	2.3	1.0
23	COc1ccc(C2=NN(C(=O)CSc3nc(=O)n4cc(C)ccc4n3)C(c3ccc(C)cc3)C2)cc1 (stereo not given)	-12.7	-12.7	1.0	0.5
18	O=C(N/N=C/c1ccc2c(c1)OCO2)c1ccc(NC(=O)c2ccc(F)cc2)cc1	-2.8	-9.2	-1.0	-5.1

Additional compounds:
item | structure | TRPML1 inh | D2 PAM | TRPV1 PAM
31 | CCOc1ccc(-n2c(=S)sc3c(=O)[nH]c(SCC(=O)NC4CCCCC4)nc32)cc1 | 2.5 | -4.4 | .
32 | COc1ccc(OC)c(C2C3=C(CCCC3=O)NC3=C2C(=O)CCC3)c1 | -2.9 | 29.7 | ?
33 | COc1ccccc1NC(=O)CN1CCN(CC(=O)Nc2ccccc2F)CC1 | . | -11.1 | .
34 | CSc1oc(-c2ccccc2)nc1C(N)=O | 6.6 | -0.8 | 6.2
35 | Cc1c(C(=O)NCCCN2CCOCC2)oc2c1C1(CCC2)SCCS1 | 19.4 | -22.3 | -4.0
36 | COc1ccc(-c2nc(C#N)c(NCCN(C)C)o2)cc1 | 9.7 | -10.5 | .
37 | O=S(=O)(Nc1nc2ccccc2nc1Cl)c1ccc(Cl)cc1 | 1.7 | -6.2 | 16.0
38 | O=C(Nc1ccccc1-c1ccccc1)c1ccco1 | -3.5 | -4.3 | -12.5

item | CtBP-E1A blk | Six1-Eya2 blk | TRPML1 agonist
31 | 1.7 | -1.7 | -0.2
32 | -2.3 | 2.5 | 3.9
33 | 12.4 | 6.6 | .
34 | 11.7 | -3.0 | -0.8
35 | -1.4 | -16.4 | -0.3
36 | -6.8 | -0.3 | -0.2
37 | 1.5 | -10.3 | -0.7
38 | -1.2 | 9.9 | -0.9

Record cards, from the list above. Order of screens: TRPML1 inh, D2 PAM, TRPV1 PAM, CtBP-E1A blk, Six1-Eya2 blk, TRPML1 agonist
Entry for CSc1oc(-c2ccccc2)nc1C(N)=O → 6.6, -0.8, 6.2, 11.7, -3.0, -0.8
Entry for O=S(=O)(Nc1nc2ccccc2nc1Cl)c1ccc(Cl)cc1 → 1.7, -6.2, 16.0, 1.5, -10.3, -0.7
Entry for COc1ccc(-c2nc(C#N)c(NCCN(C)C)o2)cc1 → 9.7, -10.5, ., -6.8, -0.3, -0.2
